Ba CapD inh: Bacillus anthracis CapD inhibitors, primary screen, biochemical, fluorescence intensity | AID 492967, 2010 | z-score (no concentration beside the values) | purified CapD enzyme, fluorescence intensity read-out; stronger effect = lower value; some hits fall short of the stated cut | actives 0.23% (n = 140,000);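 active means z-score under -4 in either of two replicates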;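 further: stock transfer was 100 nL into about 40 µL; score is relative to mean and spread of the plate; one replicate is shown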
AID504770: growth inhibition of E. coli YBA685, primary screen, V. cholerae RctB inhibitors; z-score (concentration not given with the values); actives 0.27% (n = 130,000); E. coli YBA685 rctB-dependent plasmid, OD600 growth, 3 h; stronger effect = lower value;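 active means z-score under -2 on both plates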;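 further: wells of about 30 µL received 100 nL stock; score is relative to mean and SD of the test wells; the first replicate is given; strong numbers were not always called active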
The depositor's hits bear a star. An excerpt (hit frequency here may not be typical).

Results for CN(C(=O)CSc1nc2c(c(=O)[nH]1)CCC2)c1ccccc1 ?
Ba CapD inh: 0.2; AID504770: -0.8

What do the screens show for `Cc1[nH]c(=O)[nH]c(=O)c1[N+](=O)[O-]`?
Ba CapD inh: -1.3

How did CCc1nc2ccccc2c(C(=O)O)c1C do in these assays?
Ba CapD inh: 0.68; AID504770: 0.6

How did O=C(c1c(F)cccc1F)N1CCN(C(=O)c2c(F)cccc2F)CC1 do in these assays?
Ba CapD inh: -0.43

How did Cc1cc(/C=C/C(=O)O)c(C)n1-n1cnnc1 do in these assays?
Ba CapD inh: 0.33; AID504770: 0.25

How did COCC(=O)N1CCN(c2ncnc3c(-c4ccc(Cl)cc4)nsc23)CC1 do in these assays?
AID504770: -0.55

What do the screens show for `COC(=O)c1ccc(/C=C2\SC(=S)N(NC(=O)c3ccc(Br)cc3)C2=O)cc1`?
Ba CapD inh: 0.38

Results for Cc1nc2ncccc2cc1C(=O)NCc1ccccn1 ?
Ba CapD inh: -0.29

What do the screens show for `Cc1ccc(S(=O)(=O)c2nc(-c3ccccc3)oc2S(=O)(=O)c2ccc(C)cc2)cc1`?
AID504770: 1.1

Results for O=C(Nc1nc(-c2cccs2)c(C(=O)C(F)(F)F)s1)c1ccc(S(=O)(=O)N2CCCC2)cc1 ?
Ba CapD inh: 0.23

How did CC(C)(C)C(=O)/C=C1\NCCN\C1=C/C(=O)C(C)(C)C do in these assays?
Ba CapD inh: -2.5; AID504770: -0.15

Results for CCOC(=O)CC(=O)CSc1nc2sc(C(=O)OCC)c(C)c2c(=O)n1Cc1ccco1 ?
Ba CapD inh: 0.04

How did C[C@]12CCC(=O)C=C1C=C[C@@H]1[C@@H]2CC[C@@]2(C)[C@H]1CC[C@@]2(O)CCC(=O)O do in these assays?
Ba CapD inh: -0.29

Results for O=C(CNC(=O)c1ccc(-n2cnnc2)cc1)Nc1ccc(N2CCCCC2)cc1 ?
Ba CapD inh: -0.17; AID504770: -0.85

Results for Cc1ccc(C)n1-c1ccsc1C(=O)O ?
Ba CapD inh: -1.5; AID504770: -0.8

How did CCc1ccc(OCC(=O)Nc2ccc(OC)cc2)cc1 do in these assays?
Ba CapD inh: 0.055; AID504770: 0.05

How did O=C(NCC1CC1)c1ccccc1NS(=O)(=O)c1cc(Cl)sc1Cl do in these assays?
Ba CapD inh: 0.15; AID504770: -0.9

How did Cc1cccc(C(=O)NN2C(=O)C3C4C=CC(C4)C3C2=O)c1O (centres undefined) do in these assays?
Ba CapD inh: 5.6

What do the screens show for `CCc1nc(SCC(=O)N2c3ccccc3Sc3ccccc32)n[nH]1`?
Ba CapD inh: 0.12; AID504770: 0.35

Results for CC(C)(C)n1ncc2c(=O)n(NC(=O)/C=C/c3ccccc3)cnc21 ?
AID504770: 1.9

How did C[N+]1(CC(O)COc2ccc(Br)cc2)CCCCC1 (centres undefined) do in these assays?
Ba CapD inh: -0.2; AID504770: 0

How did Cc1nc2cc(NC(=O)c3ccc(Br)s3)ccc2s1 do in these assays?
Ba CapD inh: 0.33; AID504770: 1.8

What do the screens show for `CCCCn1c(SC2CCCCC2=O)nc2cc(S(N)(=O)=O)ccc21` (centres undefined)?
AID504770: -0.6

What do the screens show for `CC(C)CCC1(C)NC(=O)N(Cc2ccc(C#N)cc2)C1=O` (centres undefined)?
AID504770: 0.75

Results for CCCN(CCC)S(=O)(=O)c1ccc(C(=O)Nc2cc(C(F)(F)F)cc(C(F)(F)F)c2)cc1 ?
Ba CapD inh: -0.45; AID504770: -0.7

How did Cc1nc2ccccc2cc1C(=O)NCc1ccco1 do in these assays?
Ba CapD inh: 0.15; AID504770: -0.7

How did COc1ccccc1Nc1snc2[nH]c(C(=O)c3ccc(C)cc3)cc12 do in these assays?
Ba CapD inh: -1; AID504770: 0.6

How did O=c1[nH]nc(SCc2ccccc2)n1C1CC2C=CC1C2 (centres undefined) do in these assays?
Ba CapD inh: -0.43; AID504770: 1.9

What do the screens show for `O=C(O)c1cc2cccnc2nc1C(F)(F)F`?
Ba CapD inh: -0.29

How did COC(=O)c1cc2c(s1)=NC=NP=2(N1CCOCC1)N1CCOCC1 do in these assays?
AID504770: -1.5

What do the screens show for `O=S(=O)(NC1CN2CCC1CC2)c1ccc(Cl)cc1` (centres undefined)?
AID504770: 0.2

How did O=C1/C(=C/c2ccc(F)cc2)SC(=S)N1N1C(=O)c2ccccc2C1=O do in these assays?
Ba CapD inh: -0.24

How did CN(CCOc1cccc(C(F)(F)F)c1)Cc1ccccc1 do in these assays?
AID504770: 0.7

How did COc1cc(C2C3=C(CC(C)(C)CC3=O)OC3=C2C(=O)CC(C)(C)C3)ccc1OCc1cc2c(cc1Cl)OCO2 do in these assays?
Ba CapD inh: -0.005

Results for C/C(Cc1ccccc1OC(=O)c1ccccc1)=N/O ?
Ba CapD inh: 0.38; AID504770: -0.3

What do the screens show for `CC1CN(C(=O)N2CCC(C(=O)O)CC2)c2cc(Cl)ccc2O1` (centres undefined)?
Ba CapD inh: 0.02; AID504770: 1.8

Results for COc1ccc(CCCOC(=O)NC2CCN(Cc3c(C)nn(-c4ccccc4)c3C)C2)cc1 (centres undefined) ?
Ba CapD inh: 0.54

Results for Nc1nc(CSc2nnc(-c3ccccc3O)n2Cc2ccccc2)cs1 ?
Ba CapD inh: -0.005; AID504770: -1.2

What do the screens show for `Cc1ccccc1NC(=O)CSc1nc(N)c(C#N)c(-c2cccs2)c1C#N`?
Ba CapD inh: -0.17

What do the screens show for `N#C/C(=C\c1ccc(-c2cc(C(F)(F)F)cc(C(F)(F)F)c2)o1)C(=O)NCCc1c[nH]c2ccccc12`?
Ba CapD inh: -0.74; AID504770: 1.9

Results for O=c1[nH]nc(-c2ccc(F)c(Cl)c2)c2ccccc12 ?
Ba CapD inh: 0.43

How did O=C(Cn1cnc2scc(-c3ccccc3)c2c1=O)N1CCCC1 do in these assays?
Ba CapD inh: 0.26; AID504770: -0.1

What do the screens show for `O=S(=O)(NC1CCCC1)c1cccc2cccnc12`?
Ba CapD inh: -0.48; AID504770: -0.1

Results for CC1(C)CC(=O)C(C=NCc2ccccc2)=C(O)C1 ?
AID504770: 0.15

How did Cc1[nH]c2ccccc2c1C(c1ccccn1)N1CCC(C)CC1 (centres undefined) do in these assays?
Ba CapD inh: -0.5; AID504770: -0.05

Results for CC1(C)CCc2cc(/C=C(\C#N)S(C)(=O)=O)ccc2O1 ?
Ba CapD inh: 0.17

How did CC(N)C(=O)c1cccs1 (centres undefined) do in these assays?
Ba CapD inh: -0.73; AID504770: 2.2

Results for COc1cc(OC)c(C(=O)OC2CCCC2=O)cc1OC (centres undefined) ?
AID504770: -0.1

Results for COc1ccc(C2CC(C(F)(F)F)n3ncc(C(=O)NCC4CCCO4)c3N2)cc1OC (centres undefined) ?
Ba CapD inh: -0.095; AID504770: -0.8

Results for Cc1ccc(NC(=O)Cc2ncon2)cc1Cl ?
Ba CapD inh: -0.7; AID504770: -1.9

How did O=C(N/N=C/C1=C(N2CCOCC2)C(=C\c2ccccc2)/CC1)NC1CCCCC1 do in these assays?
AID504770: 0.05

Results for Cc1ccc(-c2cc(C(=O)NCc3ccncc3)c3ccccc3n2)cc1 ?
Ba CapD inh: 17

Results for COc1ccc(COCC(O)CN2CC(C)OC(C)C2)cc1 (centres undefined) ?
AID504770: -0.85

Results for CCc1nc2ccccc2n1C(=O)CCCC(=O)O ?
Ba CapD inh: -0.43; AID504770: -0.25

Results for CCCCn1c(CCCNC(=O)CC)nc2ccccc21 ?
Ba CapD inh: -0.11; AID504770: 0.8

Results for CCOC(=O)C1CCCN(CC(=O)Nc2c(F)c(F)c(F)c(F)c2F)C1 (centres undefined) ?
AID504770: 0.3

What do the screens show for `CC(Oc1cccc(C(F)(F)F)c1)c1ccnc(N)n1` (centres undefined)?
Ba CapD inh: -0.61; AID504770: -1

How did C=CCN1C(=O)/C(=C\c2cc(OC)c(O)c(OC)c2)SC1=S do in these assays?
Ba CapD inh: 0.09; AID504770: 0.3

Results for Cc1ccc(S(=O)(=O)CCSc2nccn2C)cc1 ?
Ba CapD inh: 0.46; AID504770: -0.3

How did OC(C#Cc1ccccc1)c1ccco1 (centres undefined) do in these assays?
Ba CapD inh: -0.23; AID504770: 0.75

Random excerpt: 7 records from the list
How did O=C(Cn1cnc2scc(-c3ccccc3)c2c1=O)N1CCCC1 do in these assays?
Ba CapD inh: 0.26; AID504770: -0.1

Results for Cc1ccc(NC(=O)Cc2ncon2)cc1Cl ?
Ba CapD inh: -0.7; AID504770: -1.9

Results for CC1(C)CC(=O)C(C=NCc2ccccc2)=C(O)C1 ?
AID504770: 0.15

Results for CC1(C)CCc2cc(/C=C(\C#N)S(C)(=O)=O)ccc2O1 ?
Ba CapD inh: 0.17

Results for COc1ccc(COCC(O)CN2CC(C)OC(C)C2)cc1 (centres undefined) ?
AID504770: -0.85

How did Cc1[nH]c2ccccc2c1C(c1ccccn1)N1CCC(C)CC1 (centres undefined) do in these assays?
Ba CapD inh: -0.5; AID504770: -0.05

Results for COc1cc(OC)c(C(=O)OC2CCCC2=O)cc1OC (centres undefined) ?
AID504770: -0.1

Ordered by number of heavy atoms (rising): 3 of the compounds above.
What do the screens show for `Cc1[nH]c(=O)[nH]c(=O)c1[N+](=O)[O-]`?
Ba CapD inh: -1.3

Results for CC(C)(C)n1ncc2c(=O)n(NC(=O)/C=C/c3ccccc3)cnc21 ?
AID504770: 1.9

Results for O=C(Nc1nc(-c2cccs2)c(C(=O)C(F)(F)F)s1)c1ccc(S(=O)(=O)N2CCCC2)cc1 ?
Ba CapD inh: 0.23

(continued)
Results for Cc1ccsc1/C=N/NC(=O)c1nnn(-c2nonc2N)c1-c1ccccc1 ?
Ba CapD inh: -0.32

What do the screens show for `O=C(O)c1cnc2n(c1=O)CCS2`?
Ba CapD inh: -0.8

What do the screens show for `O=C(Cc1ccccc1Cl)NC1(O)C(=O)c2ccccc2C1=O`?
Ba CapD inh: 0.085; AID504770: -0.6

Results for CC(=O)N1CCN(C(=O)c2cccc(Oc3ccccc3)c2)CC1 ?
Ba CapD inh: -0.35; AID504770: -0.35

How did COc1ccccc1-n1c(=S)sc2c(=O)n(Cc3ccco3)c(SCC#N)nc21 do in these assays?
Ba CapD inh: 1.1

Results for COc1ccc(C2CC(c3ccc(C)cc3)=NN2S(=O)(=O)c2ccc(C)cc2)cc1 (centres undefined) ?
Ba CapD inh: 0.12; AID504770: 0.45

What do the screens show for `S=c1[nH]nc(SCc2ccccc2)s1`?
Ba CapD inh: -0.52; AID504770: -0.3

What do the screens show for `CC(C)Cn1c(N)c(C(=O)CSc2ncccn2)c(=O)n(C)c1=O`?
AID504770: 1.4

What do the screens show for `CCOC(=O)c1c(CSc2ccccc2)n(C2CCCCC2)c2cc(Br)c(O)cc12`?
Ba CapD inh: 0.04

How did CCSc1nnc(-c2ccncc2)n1Cc1ccccc1 do in these assays?
Ba CapD inh: 0.04; AID504770: -0.9

What do the screens show for `CCOC(=O)c1cc2c(nc1C)-c1ccccc1C2=O`?
Ba CapD inh: -0.36

What do the screens show for `O=S(=O)(c1cc(Cl)sc1Cl)N1CCN(C(c2ccc(F)cc2)c2ccc(F)cc2)CC1`?
Ba CapD inh: -0.14

What do the screens show for `Cc1ccc(CSc2nc(Cl)c3sc4ccccc4c3n2)cc1`?
Ba CapD inh: 0.5

How did CC(O)c1nc2ccccc2n1CCOc1ccccc1 (centres undefined) do in these assays?
Ba CapD inh: 0.025; AID504770: -0.3

What do the screens show for `CCOc1ccccc1C1C(C#N)=C(SCC(=O)Nc2ccccc2CC)NC2=C1C(=O)CCC2` (centres undefined)?
Ba CapD inh: 8.4

Results for COc1ccc2oc(C(=O)OCc3cc(=O)oc4cc(C)ccc34)c(C)c2c1 ?
AID504770: -0.1

How did COc1ccc(OC)c(/C=C2\SC(=Nc3ccccc3Cl)NC2=O)c1 do in these assays?
Ba CapD inh: -0.35

Results for COCCOC(=O)C1=C(C)N=c2s/c(=C3\C(=O)N(C)c4ccccc43)c(=O)n2C1c1ccc(OC(=O)c2ccco2)cc1 (centres undefined) ?
Ba CapD inh: -0.08

What do the screens show for `CCCCN(C)Cc1c(O)ccc2c3c(c(=O)oc12)CCC3`?
Ba CapD inh: 44

What do the screens show for `O=C(OCCNc1nc(-c2ccccc2)nc2ccccc12)c1ccncc1`?
Ba CapD inh: 0.78; AID504770: -0.45

Results for COC(=O)C1CN(C(=O)c2ccc(C(C)(C)C)cc2)c2ccccc2O1 (centres undefined) ?
Ba CapD inh: 0.15; AID504770: -0.25

How did COc1ccc(CCN2C(=O)CC(C(=O)O)SC2=Nc2ccc(Cl)cc2)cc1OC (centres undefined) do in these assays?
Ba CapD inh: 0.64

How did FC(F)(F)c1ccc(-c2nnc3ccc4ccccc4n23)cc1 do in these assays?
Ba CapD inh: -0.39

What do the screens show for `Cc1cc(C)[n+]2nc(-c3ccccc3)sc2n1`?
Ba CapD inh: 1.2; AID504770: 1.5

What do the screens show for `O=S(=O)(Oc1ccc(-c2nccc(-c3ccccn3)n2)cc1)c1ccccc1`?
Ba CapD inh: 0.32

How did CN1C2CCC1/C(=C\c1ccccc1)C(=O)/C2=C\c1ccccc1 do in these assays?
Ba CapD inh: -1.4; AID504770: 0.1

What do the screens show for `Cn1cc(C(=O)O)ccc1=O`?
AID504770: -0.7

How did c1ccc(-c2cnc3nonc3n2)cc1 do in these assays?
Ba CapD inh: -1.9; AID504770: -3*

How did Cn1c(=O)cc(OCCCC(=O)N2CCCCCC2)c2ccccc21 do in these assays?
Ba CapD inh: 1.1; AID504770: -2.2

Results for O=C(Nc1ccc(Oc2ccc(Br)c3ccccc23)c(Cl)c1)c1cc(Cl)cc(Cl)c1O ?
Ba CapD inh: 71

How did Cc1cc(-c2ccccc2)nc(Sc2ccc(Cl)cc2)c1S(C)(=O)=O do in these assays?
Ba CapD inh: 0.36

Results for O=C(Nc1ccc2ccccc2n1)C1CCCCC1 ?
Ba CapD inh: 2.6; AID504770: -0.8

Source: PubChem BioAssay (ICCB-Longwood Screening Facility, Harvard Medical School)
